Screens: PubChem BioAssay, Broad Institute
AF4-AF9 inh: inhibitors of human MLL-AF4/AF9 interaction; P42568; AlphaScreen, biotin-AF4 peptide binding to FLAG-AF9; inhibition, % at 10 µM; hit rate 0.47% among 350,000; AID 651704;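 active = every replicate reaching a set inhibition limit, whatever the replicate mean, cut at about 25% in these data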;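 note: 0% = plate neutral control median and 100% = total signal loss; the record names both 10 and 1 µM as test concentration; the first replicate is given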
Target sequence (P42568 whole entry, looked up): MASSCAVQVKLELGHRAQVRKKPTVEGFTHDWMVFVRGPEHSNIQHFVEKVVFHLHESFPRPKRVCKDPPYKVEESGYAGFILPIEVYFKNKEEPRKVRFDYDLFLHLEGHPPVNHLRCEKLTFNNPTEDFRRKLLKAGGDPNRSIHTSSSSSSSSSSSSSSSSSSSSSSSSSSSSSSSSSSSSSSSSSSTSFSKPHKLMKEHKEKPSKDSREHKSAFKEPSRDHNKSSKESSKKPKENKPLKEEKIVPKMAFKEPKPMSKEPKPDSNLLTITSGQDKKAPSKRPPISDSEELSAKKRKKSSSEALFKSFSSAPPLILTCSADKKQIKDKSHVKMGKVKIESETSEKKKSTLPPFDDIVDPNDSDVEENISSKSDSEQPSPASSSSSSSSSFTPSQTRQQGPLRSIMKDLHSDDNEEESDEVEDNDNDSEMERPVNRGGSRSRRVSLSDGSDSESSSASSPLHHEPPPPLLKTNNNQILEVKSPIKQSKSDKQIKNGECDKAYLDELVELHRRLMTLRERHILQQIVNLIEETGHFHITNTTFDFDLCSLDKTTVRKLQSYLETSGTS
rRNA inh HTS: inhibitors of bacterial rRNA selective over humanized ribosomes. AID 720706. E. coli WT GFP vs humanized-ribosome RFP mutants, fluorescence, 24 h; stronger effect = lower value; DMSO median 0, no signal -100. hit rate 1.6% among 350,000. GFP signal change (wild-type ribosome), % (concentration not given with the values);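 active = significant combined selectivity score with lowered wild-type GFP, culture density cut under 30%, mutant RFP and density less affected; inactive = any of these conditions unmet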; note: one replicate is shown; some compounds called inactive have numbers as strong as hits
rRNA inh HTS OD600: recorded beside rRNA inh HTS, whose call it bears; OD600 change, %; measured here: OD600 growth;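 optical density of the mix in the first replicate; 0 = DMSO median and -100 = no signal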
rRNA inh HTS RFP: also measured in rRNA inh HTS; calls as there; RFP signal change, %; measured here: RFP humanized mutant strains;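 first replicate; 0 = DMSO median and -100 = no signal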
Active calls of the source: *; & = joins results of further samples. A portion of the library; the hit share may differ from the screen's.

Preview:
AF4-AF9 inh	rRNA inh HTS	rRNA inh HTS OD600	rRNA inh HTS RFP	SMILES
-2.0	2.1	5.1	0.0	CCC(=O)N[C@@H]1CC[C@H](CC(=O)NCc2cc(F)cc(F)c2)O[C@H]1CO
11.0	0.6	-46.0	23.2	C[C@@H]1CN([C@H](C)CO)C(=O)c2cc(NS(=O)(=O)c3ccc(F)cc3)ccc2O[C@@H](C)CCCCO[C@@H]1CN(C)Cc1ccc2c(c1)OCO2
7.8	-0.2	-14.8	2.4	COc1ccc2c3c(n(C)c2c1)[C@H](CO)N(C(=O)Nc1cccc(F)c1)CC31CN(Cc2nccs2)C1
10.5	2.6	-4.1	2.5	C[C@@H]1CCCCO[C@H](CN(C)Cc2ccccc2)[C@H](C)CN([C@H](C)CO)C(=O)c2cc(NS(=O)(=O)c3ccc(F)cc3)ccc2O1
-4.2	0.7&3.5	-6.0&11.7	-0.7&-0.1	COc1ccc(NC(=O)N2C[C@@H]3N[C@H](C2)C3c2ccc(-c3cccnc3)cc2)cc1 (stereo partly specified)
-2.5	-0.5	-1.9	-1.7	CCC(=O)N[C@H]1C=C[C@@H](CC(=O)NCC2CC2)O[C@@H]1CO
-6.7	2.5	4.2	-1.1	O=C(NCc1ccccc1)[C@@H]1[C@@H](CO)[C@@H]2Cn3c(cccc3=O)[C@H]1N2C(=O)c1cnccn1
-3.5	5.4	12.8	-2.7	CCCN1C[C@H](C)[C@H](OC)CN(C)C(=O)c2cc(NC(=O)NC3CCCC3)ccc2OC[C@@H]1C

The list itself (from the top)
AF4-AF9 inh	rRNA inh HTS	rRNA inh HTS OD600	rRNA inh HTS RFP	SMILES
-2.0	2.1	5.1	0.0	CCC(=O)N[C@@H]1CC[C@H](CC(=O)NCc2cc(F)cc(F)c2)O[C@H]1CO
11.0	0.6	-46.0	23.2	C[C@@H]1CN([C@H](C)CO)C(=O)c2cc(NS(=O)(=O)c3ccc(F)cc3)ccc2O[C@@H](C)CCCCO[C@@H]1CN(C)Cc1ccc2c(c1)OCO2
7.8	-0.2	-14.8	2.4	COc1ccc2c3c(n(C)c2c1)[C@H](CO)N(C(=O)Nc1cccc(F)c1)CC31CN(Cc2nccs2)C1
10.5	2.6	-4.1	2.5	C[C@@H]1CCCCO[C@H](CN(C)Cc2ccccc2)[C@H](C)CN([C@H](C)CO)C(=O)c2cc(NS(=O)(=O)c3ccc(F)cc3)ccc2O1
-4.2	0.7&3.5	-6.0&11.7	-0.7&-0.1	COc1ccc(NC(=O)N2C[C@@H]3N[C@H](C2)C3c2ccc(-c3cccnc3)cc2)cc1 (stereo partly specified)
-2.5	-0.5	-1.9	-1.7	CCC(=O)N[C@H]1C=C[C@@H](CC(=O)NCC2CC2)O[C@@H]1CO
-6.7	2.5	4.2	-1.1	O=C(NCc1ccccc1)[C@@H]1[C@@H](CO)[C@@H]2Cn3c(cccc3=O)[C@H]1N2C(=O)c1cnccn1
-3.5	5.4	12.8	-2.7	CCCN1C[C@H](C)[C@H](OC)CN(C)C(=O)c2cc(NC(=O)NC3CCCC3)ccc2OC[C@@H]1C
-1.6	-0.3	1.5	-0.3	COc1ccccc1NC(=O)N[C@H]1CC[C@@H](CCNS(=O)(=O)c2ccc(C)cc2)O[C@@H]1CO
-2.5	0.3	8.9	-1.0	COc1ccc2c3c(n(C)c2c1)[C@@H](CO)N(Cc1ccncc1)CC31CN(C(=O)C2CCCCC2)C1
-1.4	7.2	-2.8	0.0	CCCNC(=O)N1CCC2(CC1)CN(Cc1ccccn1)[C@@H](CO)c1c2c2ccc(OC)cc2n1C
1.9	-1.9	2.5	0.9	C/C=C/c1ccc([C@H]2[C@@H](CO)N[C@@H]2CN(Cc2cccnc2)C(=O)C2CC2)cc1
-1.5	3.2	0.0	-0.3	CC(C)NC(=O)N1CC(=O)N2[C@@H](CO)[C@@H](c3ccc(C#CCN(C)C)cc3)[C@@H]2C1
0.1	-26.4	-65.3	1.2	N#C[C@@H]1[C@H](c2ccccc2C2=CCCC2)[C@@H](CO)N1C(=O)NC1CCCCC1
-4.0	-1.4	-1.4	-2.9	NCC[C@H]1CC[C@@H](NC(=O)C2CC2)[C@@H](CO)O1
2.5	-4.7	-5.0	3.9	C[C@H]1CN([C@@H](C)CO)C(=O)c2cccc(NC(=O)Nc3ccccc3)c2O[C@@H]1CN(C)Cc1ccccc1
-2.0	-0.9	-9.8	-0.1	C[C@@H](NC(=O)C[C@H]1CC[C@@H]2[C@@H](COc3ccc(NS(=O)(=O)c4ccc(Cl)cc4)cc3C(=O)N2C)O1)c1ccccc1
1.5	-1.8	0.8	-3.2	CCCC#Cc1ccc([C@H]2[C@@H](CO)N3C(=O)CN(C(=O)c4ccccn4)C[C@H]23)cc1
8.5	2.9	6.0	3.2	O=C(CC1CC1)N1CC(=O)N2[C@H](CO)[C@H](c3ccc(/C=C/c4ccccc4)cc3)[C@@H]2C1
-0.9	-0.9	6.1	-2.4	C[C@@H]1CCCCO[C@H](CN(C)C(=O)c2ccccc2)[C@H](C)CN([C@@H](C)CO)C(=O)c2cc(NS(=O)(=O)c3cn(C)cn3)ccc2O1
-0.3	-0.4	0.4	-0.9	O=C(c1ccc(F)cc1)N1CC(=O)N2[C@H](C1)[C@H](c1ccc(C#CC3CC3)cc1)[C@@H]2CO
2.2	2.2	9.0	-2.3	CO[C@H]1CN(C)C(=O)c2cc(NC(=O)NC3CCCCC3)ccc2OC[C@@H](C)N(C)C[C@H]1C
-1.0	-1.6	0.2	0.0	C/C=C/c1ccc([C@H]2[C@@H](CO)N(C(C)=O)[C@@H]2CN(CCC)C(=O)C2CC2)cc1
-5.8	1.4	-0.2	-2.2	Cc1noc(C)c1S(=O)(=O)Nc1ccc2c(c1)C(=O)N([C@H](C)CO)C[C@H](C)[C@@H](CN(C)C(=O)c1ccccc1)OCCCC[C@@H](C)O2
11.0&5.5	-60.5&-61.8	-69.3&-79.2	-14.8&-16.5	COc1cccc(CN2C[C@@H]3N[C@H](C2)C3c2ccc(-c3ccccc3F)cc2)c1 (stereo partly specified)
8.0	-30.8	-64.0	6.0	O=C(c1cnccn1)N1CC(=O)N2[C@H](CO)[C@@H](c3ccc(C#CCC4CCCC4)cc3)[C@@H]2C1
-5.7	-3.1	-6.2	-1.4	C[C@@H]1CCCCO[C@@H](CN(C)C(=O)Nc2ccc(F)cc2)[C@H](C)CN([C@@H](C)CO)C(=O)c2cc(NS(=O)(=O)c3ccc(Cl)cc3)ccc2O1
-2.3	-1.5	0.8	-2.2	O=C(NC1CCCCC1)N1CC2(C1)[C@H](c1ccccc1)[C@H](CO)N2CC1CC1
-0.8	-0.4	-5.1	-2.7	O=C(C1CC1)N1CC(=O)N2[C@H](C1)[C@@H](c1ccc(-c3ccccc3F)cc1)[C@@H]2CO
-3.5	-1.7	-42.5	17.9	N#C[C@H]1[C@H](c2ccc(C#Cc3ccccc3F)cc2)[C@H](CO)N1C(=O)C1CCCC1
0.4	1.9	5.7	-2.4	COCC(=O)N1CC(=O)N2[C@H](CO)[C@H](c3ccc(C#CC(C)C)cc3)[C@H]2C1
-3.0	3.1	2.1	4.2	CCC(=O)N1CC(=O)N2[C@H](C1)[C@@H](c1ccc(-c3ccccc3F)cc1)[C@@H]2CO
-3.5	4.8	2.1	1.9	C[C@H](CO)N1C[C@H](C)[C@@H](CN(C)C(=O)NC2CCCCC2)Oc2ccc(NC(=O)CCCN(C)C)cc2C1=O
-1.8	0.8	-7.6	5.4	CN(C)CC#Cc1ccc([C@H]2[C@H](CO)N3C(=O)CN(C(=O)Cc4ccccc4)C[C@@H]23)cc1
-4.9	0.4	1.9	0.2	CO[C@H]1CN(C)C(=O)c2ccc(NS(=O)(=O)CC(F)(F)F)cc2OC[C@@H](C)N(C(=O)c2ccc3c(c2)OCO3)C[C@@H]1C
-0.8	2.1	0.8	-2.3	CCCNC(=O)C[C@H]1C[C@H]2c3cc(NC(=O)C4CCC4)ccc3O[C@H]2[C@H](CO)O1
-7.3	-2.6	-0.8	0.2	O=C(Cc1ccncc1)N1C[C@@H]2N[C@H](C1)C2c1ccc(-c2cccc(F)c2)cc1 (stereo partly specified)
0.9	1.2	1.8	-1.2	CNC(=O)C[C@@H]1CC[C@@H]2[C@@H](COc3ccc(NC(=O)Nc4ccccc4OC)cc3C(=O)N2C)O1
-10.5	-4.6	-11.9	-0.3	COc1ccc(-c2ccc([C@@H]3[C@@H](CO)N4C(=O)CN(C(=O)NC(C)C)C[C@@H]34)cc2)cc1
-1.6	-0.8	-2.3	-1.6	O=C(Nc1ccc(F)cc1)N[C@@H]1CC[C@@H](CCNC(=O)c2ccccc2F)O[C@@H]1CO
-2.5	-0.7	-1.9	-1.6	C[C@@H]1CCCCO[C@H](CN(C)S(=O)(=O)c2ccc(F)cc2)[C@@H](C)CN([C@H](C)CO)C(=O)c2cc(NC(=O)C3CCCCC3)ccc2O1
-6.4	-1.2	-0.8	-2.6	Cc1noc(C)c1NC(=O)Nc1ccc2c(c1)C(=O)N([C@H](C)CO)C[C@H](C)[C@@H](CN(C)Cc1ccccc1)OCCCC[C@H](C)O2
1.9	0.7	-0.5	-0.1	CO[C@@H]1CN(C)C(=O)c2cc(NC(=O)Cc3ccccc3)ccc2OC[C@H](C)N(CC2CC2)C[C@H]1C
3.0	1.4	-9.1	13.6	O=C(c1ccc(F)cc1)N1CC(=O)N2[C@H](CO)[C@H](c3ccc(C#CC4CCCCC4)cc3)[C@@H]2C1
0.5	-1.2	-3.0	-0.3	COC(=O)C[C@H]1CC[C@@H]2[C@@H](COc3ccc(NC(=O)NC(C)C)cc3C(=O)N2C)O1
7.0	-12.2	-27.5	2.7	C[C@@H](NC(=O)[C@H]1N[C@H]2c3ccc(C4=CCCCC4)c(=O)n3C[C@H]2[C@@H]1CO)c1ccccc1
1.0	1.1	-3.7	-5.7	C[C@@H]1CCCCO[C@H](CN(C)S(=O)(=O)c2ccc(F)cc2)[C@@H](C)CN([C@@H](C)CO)C(=O)c2cc(NS(=O)(=O)c3ccc(Cl)cc3)ccc2O1
1.1	-3.9	1.0	-0.9	O=C(Nc1ccc(F)cc1)N1CC(=O)N2[C@@H](CO)[C@H](c3ccc(Br)cc3)[C@@H]2C1
4.6	-6.0	-6.4	0.3	O=S(=O)(N[C@@H]1CC[C@H](CCn2cc(-c3ccccc3F)nn2)O[C@@H]1CO)c1ccc(F)cc1
-1.9	-13.9	-27.9	13.8	O=C1CN(S(=O)(=O)Cc2ccccc2)C[C@@H]2[C@@H](c3ccc(C#Cc4cccnc4)cc3)[C@H](CO)N12
-1.9	6.6	3.7	2.3	C[C@@H]1CCCCO[C@@H](CN(C)C(=O)Nc2ccccc2)[C@@H](C)CN([C@@H](C)CO)C(=O)c2cc(NC(=O)NC3CCCCC3)ccc2O1
1.4	2.8	5.3	-1.1	COc1ccc(NC(=O)N(C)C[C@H]2Oc3ccc(N(C)C)cc3C(=O)N([C@@H](C)CO)C[C@@H]2C)cc1
-2.2	-2.7	-1.3	-0.7	O=C(Nc1ccc(F)cc1)N[C@H]1CC[C@H](CCNC(=O)c2ccccc2F)O[C@@H]1CO
6.1	-2.0	-5.9	1.7	C[C@@H]1CN([C@H](C)CO)C(=O)c2c(c3ccccc3n2C)-c2ccccc2CO[C@@H]1CN(C)C(=O)Nc1ccnc(N2CCOCC2)c1
-9.6	5.8	16.4	0.7	CC(C)NC(=O)Nc1ccc2c(c1)CC(=O)N([C@H](C)CO)C[C@@H](C)[C@H](CN(C)S(=O)(=O)c1ccccc1)O2
-2.3	-2.8	8.5	-3.0	O=C(Cc1cccnc1)N1CC(=O)N2[C@H](CO)[C@@H](c3ccc(C4=CCCC4)cc3)[C@@H]2C1

The list continues.
AF4-AF9 inh	rRNA inh HTS	rRNA inh HTS OD600	rRNA inh HTS RFP	SMILES
4.5	1.7	-1.6	2.6	CO[C@@H]1CN(C)C(=O)c2ccc(NS(=O)(=O)c3cccc(C)c3)cc2OC[C@@H](C)N(Cc2cc(F)ccc2F)C[C@H]1C
-1.3	-4.2	6.3	11.3	O=C(NC1CCCCC1)N1CC(=O)N2[C@@H](CO)[C@@H](c3ccc(-c4ccccc4)cc3)[C@@H]2C1
-2.0	3.8	1.8	-2.0	CCC(=O)N1CC(=O)N2[C@@H](CO)[C@H](c3ccc(-c4cccnc4)cc3)[C@@H]2C1
0.5	-33.6	-58.9	9.7	Cc1cccc(-c2ccc([C@@H]3[C@@H](CO)N4C(=O)CN(C(=O)c5ccccc5)C[C@@H]34)cc2)c1
-3.4	-2.3	-22.8	14.2	N#C[C@@H]1[C@@H](c2ccc(-c3cccc(F)c3)cc2)[C@H](CO)N1C(=O)NC1CCCCC1
-5.0	-57.0	-77.7	-10.6	O=C(Nc1ccc(C(F)(F)F)cc1)N1[C@@H]2CNC[C@H]1C2c1ccc(-c2ccc(F)cc2)cc1 (stereo partly specified)
7.0	-8.1	-54.6	33.9	O=C(NCC1CC1)[C@@H]1[C@@H](CO)[C@@H]2Cn3c(ccc(C4=CCCCC4)c3=O)[C@@H]2N1Cc1ccccc1F
0.4	-57.3	-77.2	-14.7	O=C(Nc1ccc(Cl)cc1)N[C@H]1CC[C@@H](CCNC(=O)c2cc(Cl)cc(Cl)c2)O[C@H]1CO
0.9	1.6	0.0	-2.0	O=C(C[C@@H]1CC[C@H]2NC[C@@H](O)COC[C@@H]2O1)NCCN1CCCC1
